Screening results: PubChem, several laboratories
UUG fidelity = modulators of start codon recognition fidelity in yeast; S. cerevisiae UUG-firefly luciferase reporter, luminescence/redox ratio; activity score, % at 18.7 µM; actives 0.13% (n = 350,000); AID 602363;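 active means replicate mean at a twofold rise or more, about +100% in these data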;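 further: firefly luciferase made from a UUG start codon reports start codon fidelity; reporter light over untreated wells divided by growth signal over untreated wells; some hits fall short of that in this replicate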
CSC inhib = blocks cancer stem cells. inhibition, % at 7.5 µM. cancer stem cell-like cells viability, luminescence. actives 1.1% (n = 300,000);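 active means mean at 75% or more and at least half the replicates too; inconclusive means mean and replicates disagree; tested in HMLE shEcad cells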;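 further: 0% = median of negative and 100% = median of positive control wells; the first replicate is given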
MT1-MMP act inh = MT1-MMP (human) activation inhibition; HT1080 RFP-PRO-GFP cells, GFP/RFP ratio fluorescence, overnight; percent of plate control window, DMSO zero; actives 0.061% (n = 360,000); P50281; GFP/RFP ratio change, % at 20 µM;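 active means GFP/RFP ratio change of at least 30% with cell ATP level not reduced by more than half and red fluorescence within 50% of control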; further: strong numbers were not always called active
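Assay system: HT1080 cells carrying an RFP-PRO-GFP reporter | Dosing: Single dose of 20 µM compound, 1% DMSO final | Incubation: Cells overnight before dosing, compound overnight, 37 °C, 5% CO2 | Evaluation: GFP/RFP fluorescence ratio | Control set: DMSO and RFP-L50D-GFP cell wells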
Rce1 inh = blocks yeast Ras-converting enzyme; actives 0.27% (n = 290,000); yeast membranes, quenched prenylated peptide cleavage fluorescence; AID 2563; calls only;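 active means fall in fluorescence gain of 50% or more versus controls, with final raw signal at or below 3038400; inconclusive means same 50% fall but final raw signal above 3038400; inactive means fall in fluorescence gain under 50%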;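 further: plate controls were neutral control wells for no effect and wells lacking membranes for full effect; tested at 10 µM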
Target sequence (Q03530 whole entry, looked up): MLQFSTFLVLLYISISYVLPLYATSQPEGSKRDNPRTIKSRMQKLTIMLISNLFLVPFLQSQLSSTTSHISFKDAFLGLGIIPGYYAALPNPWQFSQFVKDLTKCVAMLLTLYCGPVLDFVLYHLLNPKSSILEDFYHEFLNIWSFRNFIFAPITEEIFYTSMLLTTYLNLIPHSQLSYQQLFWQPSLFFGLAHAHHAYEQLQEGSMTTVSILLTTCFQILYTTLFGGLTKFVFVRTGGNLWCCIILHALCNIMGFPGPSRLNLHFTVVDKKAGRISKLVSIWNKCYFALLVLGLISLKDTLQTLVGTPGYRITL
Env fusion inh = blocks HIV Env-driven cell-cell fusion; inhibition, % at 12.3 µM; actives 1.1% (n = 360,000); HeLa-JRFL Env/CEM21 cell fusion, luciferase; AID 651610;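 active means mean replicate inhibition score of at least 50 and every replicate individually at or above 50; inconclusive means only one of the two criteria met; inactive means mean below 50 and not all replicates reaching 50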;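 further: 0% = plate neutral controls and 100% = maraviroc near 300 nM; one replicate is shown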
PABP polyA inh = blocks human PABP binding to poly(A) RNA | fluorescence polarization | actives 1% (n = 290,000) | inhibition, % at 35 µM;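 active means 50% or more with normal probe brightness, or confirmed in later tests; inconclusive means above 50% with abnormal brightness, or retests that disagree; inactive means below 50% or failed in later tests; about a fifth of its hits are not listed in these tables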;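 further: calls also rest on retests at 20 µM and on dose response follow-up; controls were probe without protein and protein plus probe with vehicle; some compounds called inactive have numbers as strong as hits; many hits fall short of the cut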
Target sequence (P11940 whole entry, looked up): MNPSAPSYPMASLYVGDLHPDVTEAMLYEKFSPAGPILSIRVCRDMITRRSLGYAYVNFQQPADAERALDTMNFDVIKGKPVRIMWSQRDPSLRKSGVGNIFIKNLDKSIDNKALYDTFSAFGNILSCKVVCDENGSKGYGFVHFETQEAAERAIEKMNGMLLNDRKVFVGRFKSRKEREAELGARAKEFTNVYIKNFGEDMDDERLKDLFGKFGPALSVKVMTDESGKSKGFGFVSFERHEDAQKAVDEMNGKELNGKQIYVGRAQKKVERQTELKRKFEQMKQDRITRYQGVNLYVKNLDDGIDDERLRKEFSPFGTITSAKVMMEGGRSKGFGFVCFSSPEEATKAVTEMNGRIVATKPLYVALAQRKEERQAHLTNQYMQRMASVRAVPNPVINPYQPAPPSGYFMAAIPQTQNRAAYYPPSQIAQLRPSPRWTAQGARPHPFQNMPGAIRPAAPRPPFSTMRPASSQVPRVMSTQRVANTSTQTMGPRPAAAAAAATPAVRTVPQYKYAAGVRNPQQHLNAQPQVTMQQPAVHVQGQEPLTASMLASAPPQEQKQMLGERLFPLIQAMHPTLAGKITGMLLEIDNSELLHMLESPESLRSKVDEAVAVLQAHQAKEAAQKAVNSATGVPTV
eIF4H inh = inhibitors of RNA binding by human eIF4H. eIF4H fluorescence polarization binding assay. inhibition, % at 35 µM. actives 0.94% (n = 290,000);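 active means 50% or more with normal probe brightness, or confirmed in later tests; inconclusive means above 50% with abnormal brightness, or retests that disagree; inactive means below 50% or failed in later tests; about a fifth of its hits are not listed in these tables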;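 further: calls also rest on retests at 20 µM and on dose response follow-up; 0% = protein and probe with vehicle and 100% = probe without protein; strong numbers were not always called active; many hits fall short of the cut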
MT1-MMP act inh RFP = recorded beside MT1-MMP act inh, whose call it bears; RFP signal change, %; measured here: RFP expression control read;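 0 = vehicle wells; hits needed this value within 50% of zero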
Numbers without * were called inactive; i = inactive; ? = inconclusive; . = not tested or not shown. Not all compounds are listed (hit frequency here may not be typical).

canonical_smiles,Env fusion inh,MT1-MMP act inh,eIF4H inh,MT1-MMP act inh RFP,CSC inhib,PABP polyA inh,UUG fidelity,Rce1 inh
CC(=O)c1ccc(S(=O)(=O)N2CCN(c3ccccc3F)CC2)cc1,8,-6,-7,-14,-7,4,.,i
CCN1CCN(C(=S)Nc2ccc(Cl)cc2)CC1,-278,6,-8,2,1,0,-1,i
COCCC(=O)Nc1ccc2c(c1)CN(C(=O)CCOC)CC2,-4,-1,-7,-4,-11,-1,.,.
CCOC(=O)c1ccc(NC(=O)CCNC(=O)c2ccc([N+](=O)[O-])cc2)cc1,-3,1,-4,1,-5,-16,-20,i
Cc1cccc(C)c1NC(=O)CSc1nnc(NC(=O)C2CC2)s1,-9,-1,10,0,-10,1,.,i
CC(=O)Oc1ccc2nc(-c3ccc(Br)o3)oc(=O)c2c1,10,3,4,3,-8,-4,-7,i
CN(C)CCNc1ncnc2c1ncn2[C@H]1CN(Cc2ccc(F)cc2)C[C@@H](CO)O1,15,0,.,4,.,.,0,.
CCOC(=O)c1sc(N)c(C(=O)OCC)c1C,-8,-2,-3,-5,-10,2,-1,i
CCOC(=O)C1=C(COC(=O)c2ccccc2OC)NC(=O)NC1C (centres undefined),-15,2,.,2,.,.,-9,.
O=C(Nc1ccccc1O)/C(=C\c1ccccc1)NC(=O)c1ccccc1,2,.,-2,.,-13,0,.,i
COc1ccccc1C1SCCN1S(C)(=O)=O (centres undefined),.,1,-10,2,-11,11,-11,i
CCOc1ccc(N2C(=O)CC(Sc3nc4ccc(OCC)cc4s3)C2=O)cc1 (centres undefined),.,6,.,2,0,.,-7,i
CSc1ccc(CN2CCC2(C)C(=O)NCc2ccc3c(c2)OCO3)cc1 (centres undefined),18,1,.,-3,.,.,9,.
COc1ccc2c3c([nH]c2c1)C1CC2C(CC(O)C(OC)C2CO)CN1CC3 (centres undefined),.,1,47,3,-14,9,-10,i
CC(C)=CC(=O)OCC(=O)NC(=O)NC(C)(C)C,18,4,-9,12,8,0,-17,.
CCN(C(=O)CSc1nnc(-c2ccc(F)cc2)c2ccccc12)C1CCS(=O)(=O)C1 (centres undefined),-12,8,1,0,-5,17,.,i
CSc1ccccc1C(=O)OCC(=O)NC1CCS(=O)(=O)C1 (centres undefined),3,-3,-2,4,-12,13,.,i
CCOC(=O)c1nc(Nc2ccc(C)cc2)c2ccccc2n1,.,3,13,-6,13,11,-16,i
COc1ccc(C)cc1NC(=O)NCc1ccccn1,16,0,6,2,0,1,-8,i
O=C(CCc1nnc(Cc2c[nH]c3ccccc23)o1)NCC1CC12CCCCC2 (centres undefined),18,-4,3,1,13,7,.,i
COc1cc(C)nc(NC(=O)COc2ccc(Cl)cc2C)n1,-38,3,5,-2,-23,2,.,i
CC1OC2(C)OC(=N)C1(C#N)C(C#N)(C#N)C2c1ccccc1 (centres undefined),-5,-2,?,18,1,-8,-19,i
Nc1c(-c2ccccc2Cl)cnn1-c1cccc([N+](=O)[O-])c1,-14,11,5,4,0,0,3,i
CC(=O)c1ccc(S(=O)(=O)NCC2(N3CCOCC3)CCCCC2)cc1,.,-3,.,1,-16,.,-8,.
Nc1nc(-c2ccccc2)cc(-c2ccccc2O)n1,28,-8,-3,-8,23,-5,-15,i
COc1ccc(CC2(C)OC(c3ccc([N+](=O)[O-])cc3)=NN2C(C)=O)cc1 (centres undefined),8,-3,2,-3,4,-3,.,i
Cc1ccc(S(=O)(=O)NCCC(=O)OCC(=O)NCCc2ccccc2)cc1C,14,-1,.,3,2,.,2,i
O=C(O)COc1ccc(/C=N/NC(=O)C(O)(c2ccccc2)c2ccccc2)cc1,18,3,3,3,-3,0,-37,i
O=C(COc1coc(CN2CCc3ccccc3C2)cc1=O)Nc1cccc(F)c1,.,4,.,-5,2,.,-17,i
COc1cc(/C=N/NC(=O)c2sc(N)c(C#N)c2C)ccc1O,.,-4,4,-5,8,4,.,i
CCOC(=O)c1c(C)c(C(=O)Nc2ccc3c(c2)OCCO3)c(C)n1C,-20,13,-8,-2,.,-6,.,i
CCn1c(Cc2ccccc2)nnc1SCc1nc2ccccc2c(=O)[nH]1,-33,4,-9,-1,2,5,-7,i
CCOC(=O)C1CCN(C(=O)c2cc(C)n(C(C)(C)C)n2)CC1,-28,2,1,1,-2,-2,2,i
COCCN(C(=O)COC(=O)CCS(=O)(=O)c1ccccc1)c1c(N)n(Cc2ccccc2)c(=O)[nH]c1=O,-1,.,.,.,-1,.,.,i
Cc1c(Cl)cccc1N1C(=O)CC(NNC(=O)c2ccc3c(c2)OCO3)C1=O (centres undefined),18,-2,.,1,10,.,-8,.
CC(CN1CCCC1)OC(=O)C(c1ccccc1)c1ccccc1 (centres undefined),9,0,-2,0,-23,17,4,i
Cc1cc(C)c2cc(C)c3nnc(SCC(=O)NCc4ccc5c(c4)OCO5)n3c2c1,-89,3,-2,3,11,-8,-25,i
Cc1cc(C(=O)NNC(=S)NCc2ccco2)n(C)n1,-42,1,1,0,-8,-2,-34,i
O=c1c(-c2ccccc2)n[nH]c2ccccc12,.,2,-5,0,-8,-3,-22,.
CC(C)c1ccc(/C=C/C(=O)n2nnc3ccccc32)cc1,-33,0,4,4,34,8,-14,i
C=CCn1ccc(=O)nc1SC,7,-3,.,3,.,.,-16,.
CCOC(=O)Cc1nn(Cc2ccc(Cl)cc2)c(=O)c2ccccc12,11,1,4,2,27,-6,-14,i
Clc1ccc(C=NNc2ccccn2)c(Cl)c1,-30,3,.,-3,.,.,-32,.
COc1ccc(CC(NC(C)=O)C(=O)NC2CCN(c3nc(C)cc(C)c3C#N)CC2)cc1 (centres undefined),-8,-3,-2,-2,.,-3,.,i
COC(=O)C1=C(O)/C(=C/c2ccc(OCC(=O)Nc3ccccc3)cc2)N=C1C,.,0,7,1,-4,14,1,i
CCOC(=O)C1=C(C)N(C)C(=S)NC1c1c(OCC)ccc2ccccc12 (centres undefined),9,-5,1,-1,4,3,.,.
Cc1ccccc1N1CC(C(=O)Nc2nnc(SCc3ccccn3)s2)CC1=O (centres undefined),-14,-4,18,0,-4,14,-1,i
COc1ccc(NC(=O)c2cc3n(n2)C(C(F)(F)F)CC(c2ccco2)N3)cc1 (centres undefined),.,-7,-2,-10,49,-10,-12,i
N#CCCN(C(=O)Nc1ccc(Cl)cc1)c1ccccc1,.,7,2,-1,-7,2,-13,i
CCc1nc2c(OCC3CCCCC3)cccn2c1N(C)C(=O)c1ccccc1F,23,-22,.,-16,.,.,-14,.

Sorted by number of heavy atoms (lowest first): some entries from above.
canonical_smiles,Env fusion inh,MT1-MMP act inh,eIF4H inh,MT1-MMP act inh RFP,CSC inhib,PABP polyA inh,UUG fidelity,Rce1 inh
Clc1ccc(C=NNc2ccccn2)c(Cl)c1,-30,3,.,-3,.,.,-32,.
N#CCCN(C(=O)Nc1ccc(Cl)cc1)c1ccccc1,.,7,2,-1,-7,2,-13,i
COC(=O)C1=C(O)/C(=C/c2ccc(OCC(=O)Nc3ccccc3)cc2)N=C1C,.,0,7,1,-4,14,1,i

(listing goes on)
canonical_smiles,Env fusion inh,MT1-MMP act inh,eIF4H inh,MT1-MMP act inh RFP,CSC inhib,PABP polyA inh,UUG fidelity,Rce1 inh
CCOC(=O)c1ccc(NC(=O)c2nc[nH]c2C(=O)N[C@@H](CCCCNC(=O)OC(C)(C)C)C(=O)OC(C)(C)C)cc1,33,-20,3,-20,-9,9,-8,i
O=[N+]([O-])c1cccc(COc2ccccc2CN2CCCCC2)c1,-99,2,.,2,.,.,-23,.
CN(C)CCCN(C(=O)c1ccc2c(c1)CCCC2)c1nc2ccc(Cl)cc2s1,-95,-15,-5,-10,-5,-12,.,i
COc1cc(NC(=O)CCCn2c(=O)oc3ccccc32)cc(OC)c1,-4,2,.,3,-15,.,-19,.
CCc1nc2ccc(C(=O)Nc3cccc(OCC(=O)N(C)C)c3)cn2c1N(CC)CCOC,7,-2,.,5,.,.,-15,.
COc1cccc(-c2cc(C(F)(F)F)n3nc(C(=O)Nc4c(C)n(C)n(-c5ccccc5)c4=O)cc3n2)c1,5,3,2,3,-12,1,1,i
Cc1nn(Cc2ccccc2)c(C)c1CNC(=O)[C@H](C)N=C1NS(=O)(=O)c2ccccc21,.,1,.,3,-16,.,4,.
CCCCCCSc1nc2c(c(=O)[nH]c(=O)n2C)n1C,-45,2,-8,-1,.,0,-8,i
COc1ccc(S(=O)(=O)Nc2ccccc2C(F)(F)F)cc1,0,-1,-8,0,-1,0,-10,i
COc1cc(Nc2ccc(S(=O)(=O)N3CCN(C)CC3)cc2[N+](=O)[O-])cc(OC)c1,1,0,.,-2,-3,.,4,i
C=CCc1ccccc1OCC(O)CN1CCN(c2ccc(OC)cc2)CC1 (centres undefined),-61,6,14,1,8,3,-13,i
O=C(NCc1ccc2c(c1)OCO2)C1CCC(CNS(=O)(=O)c2cccc3nsnc23)CC1 (centres undefined),6,2,-18,-4,7,1,-12,i
CC1C(=O)N(Cc2cn(CC3CCCCC3)nn2)CCS(=O)(=O)N1Cc1ccc(-c2cccc(N(C)C)c2)cc1 (centres undefined),-12,-7,.,-15,.,.,-16,.
COc1cc(CC(NC(C)=O)C(=O)NC2CCN(c3nc(OC)nc(OC)n3)CC2)cc(OC)c1 (centres undefined),-11,-3,11,5,-7,-8,-7,i
CCOC(=O)C1CCN(c2c(NCCCN3CCN(Cc4ccccc4)CC3)c(=O)c2=O)CC1,0,-4,4,3,0,-5,4,i
CC1=Nn2c(nnc2-c2n[nH]c3c2CCC3)SC1,.,-2,-5,-2,-2,6,-6,i
COc1ccc(CCNC(=O)c2ccc(N3CCCCS3(=O)=O)cc2)cc1OC,-2,-1,.,-2,-1,.,2,i
CC(C)N(C(C)C)S(=O)(=O)c1ccc(NN)nc1,0,1,-6,5,-1,-11,-20,i
Cc1cccc(C)c1NC(=S)NC(C)CCc1ccccc1 (centres undefined),3,-2,9,1,-8,-1,-25,i
O=C1COc2ccc(C(=O)COC(=O)CCSc3ccc(Cl)cc3)cc2N1,-4,1,-1,2,-11,7,.,i
NC(=O)C(c1ccc(Br)cc1)c1ccc(C(=O)c2ccccc2)cc1 (centres undefined),15,1,2,-9,-2,-2,9,i
CCC1Sc2ccc(S(=O)(=O)CCC(=O)Nc3cc(C)ccn3)cc2NC1=O (centres undefined),4,1,.,-3,-15,.,-10,i
O=C1CC2(CCCCCC2)Oc2ccc(Cl)cc21,13,6,.,3,-2,.,0,i
CCOc1ccccc1N(CC(=O)Nc1ccc(S(=O)(=O)N2CCCC2)cc1)S(C)(=O)=O,-5,-7,-5,-2,-1,1,2,i
COc1ccc(N2CCN(C(=O)C3CCCN(S(=O)(=O)c4ccc(C)cc4)C3)CC2)cc1 (centres undefined),30,0,5,-14,38,4,1,i
O=C(CCc1nnc(CCCCc2ccccc2)o1)NCCN1CCCCC1=O,-11,-1,1,4,-7,-7,-5,i
CCCCN=C1SC(C(=O)Nc2sc3c(c2C(=O)OC)CCC3)C(N)=C1C(=O)N1CCOCC1 (centres undefined),-2,-7,.,-3,2,.,-5,i
O=C1CCCc2c1cc(-c1ccccc1)n2-c1ccccc1,-37,8,7,-8,12,2,1,i
C[C@@]12CCC3[C@@](CCC4[C@@]3(C)CCC[C@@]4(C)C(=O)N3CCOCC3)(CC1=O)C2 (some centres undefined),6,1,.,-2,-13,.,7,.
